Screening data as filed in PubChem.
MLL AF4-AF9 inh = inhibitors of human MLL-AF4/AF9 interaction; P42568; AlphaScreen, biotin-AF4 peptide binding to FLAG-AF9; inhibition, % at 10 µM; 350,000 tested, 0.47% active; AID 651704;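 active = every replicate reaching a set inhibition limit, whatever the replicate mean, cut at about 25% in these data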;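 also: 0% = plate neutral control median and 100% = total signal loss; the record names both 10 and 1 µM as test concentration; the first replicate is given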
Target sequence (P42568 whole entry, looked up): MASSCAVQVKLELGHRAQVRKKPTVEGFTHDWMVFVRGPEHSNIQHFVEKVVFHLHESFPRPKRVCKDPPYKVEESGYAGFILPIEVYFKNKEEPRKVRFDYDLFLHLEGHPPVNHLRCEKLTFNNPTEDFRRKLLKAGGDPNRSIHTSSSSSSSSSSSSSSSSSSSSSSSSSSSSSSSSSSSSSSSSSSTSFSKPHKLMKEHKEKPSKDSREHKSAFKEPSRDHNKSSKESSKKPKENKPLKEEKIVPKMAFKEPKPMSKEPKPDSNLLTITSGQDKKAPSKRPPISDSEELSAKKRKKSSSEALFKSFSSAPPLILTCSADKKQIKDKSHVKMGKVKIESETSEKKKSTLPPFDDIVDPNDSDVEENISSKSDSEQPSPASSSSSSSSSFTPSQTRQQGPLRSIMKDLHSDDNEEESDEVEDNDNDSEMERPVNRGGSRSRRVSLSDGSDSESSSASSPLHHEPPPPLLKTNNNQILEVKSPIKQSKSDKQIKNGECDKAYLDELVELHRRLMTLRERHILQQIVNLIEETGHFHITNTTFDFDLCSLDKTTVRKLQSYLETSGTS
Ecoli rRNA inh = selective bacterial rRNA inhibition in E. coli | GFP signal change (wild-type ribosome), % (concentration not given with the values) | E. coli WT GFP vs humanized-ribosome RFP mutants, fluorescence, 24 h; active compounds read low; DMSO median 0, no signal -100 | 350,000 tested, 1.6% active | AID 720706;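 active = significant combined selectivity score with lowered wild-type GFP, culture density cut under 30%, mutant RFP and density less affected; inactive = any of these conditions unmet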; also: one replicate is shown; some compounds called inactive have numbers as strong as hits
FGF22 binding = FGF22 (human) thermal shift binding; Q9HCT0; recombinant FGF22 thermal shift, SYPRO orange fluorescence; percent of sucrose octasulfate shift, DMSO zero; calls only at 9.99 µM; 340,000 tested, 1.5% active; AID 651658;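 active = melting point raised past a set limit in the mean and every replicate; three in four hits are not shown here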
Target sequence (Q9HCT0 whole entry, looked up): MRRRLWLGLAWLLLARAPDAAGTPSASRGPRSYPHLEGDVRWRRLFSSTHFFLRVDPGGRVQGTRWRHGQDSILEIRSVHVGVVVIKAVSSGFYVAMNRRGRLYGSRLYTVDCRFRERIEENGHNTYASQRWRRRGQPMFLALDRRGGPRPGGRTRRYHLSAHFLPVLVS
Ecoli rRNA inh OD600 = second read-out of Ecoli rRNA inh, no call of its own (marks repeat the call); OD600 change, %; measured here: OD600 growth;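 optical density of the mix in the first replicate; 0 = DMSO median and -100 = no signal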
Ecoli rRNA inh RFP = recorded beside Ecoli rRNA inh, whose call it bears; RFP signal change, %; measured here: RFP humanized mutant strains;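 first replicate; 0 = DMSO median and -100 = no signal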
The depositor's hits bear a star; i = inactive; + = active, no number. These rows are one share of the data (hit frequency here may not be typical).

Ecoli rRNA inh OD600	MLL AF4-AF9 inh	FGF22 binding	Ecoli rRNA inh	Ecoli rRNA inh RFP	compound
14	-2.7	i	6	-1.6	C[C@H](NC(=O)C[C@H]1CC[C@@H]2[C@H](COC[C@@H](O)CN2C)O1)c1ccccc1
16	2.1	i	5	1.4	COc1ccc(OC)c(NC(=O)C2(C)CCN2C(=O)Cc2ccccc2)c1 (configuration not stated)
10	-1.9	+	-1	0.2	C[C@H]1CCCCO[C@H](CN(C)Cc2ccncc2)[C@@H](C)CN([C@@H](C)CO)C(=O)c2cc(NC(=O)c3ccncc3)ccc2O1
17	0.3	i	2	5.4	O=C(Nc1ccc(F)c(Cl)c1)c1ccc2sc([C@@H]3O[C@H](CO)[C@H](O)[C@H](O)[C@H]3O)nc2c1
-42	-0.7	i	-38	-4.4	N/C(Cc1ccc(Cl)cc1)=N\OC(=O)CCc1ccccc1
0.9*	-3.8	i	-13*	3.6*	Oc1ccc2ccccc2c1CNc1ccccc1
11	-4.1	i	1	-0.6	C[C@@H]1CN([C@H](C)CO)C(=O)c2cccc(NS(=O)(=O)c3cccs3)c2O[C@@H]1CN(C)S(=O)(=O)c1ccccc1
0	0.1	i	-1	1.9	CCCNC(=O)C[C@H]1CC[C@@H]2[C@@H](COc3ccc(NC(=O)c4cccc(OC)c4)cc3C(=O)N2C)O1
3	-0.4	i	4	-1.3	CCCC#Cc1cnc2c(c1)C(=O)N([C@H](C)CO)C[C@@H](C)[C@@H](CN(C)C(=O)c1ccc(F)cc1)O2
10	-2.4	i	1	-0.2	C[C@H]1CN([C@@H](C)CO)C(=O)c2cc(C#CCN(C)C)cnc2O[C@H]1CN(C)Cc1cccc(C(=O)O)c1
1	-17	i	-2	0.4	C[C@H](NC(=O)C[C@@H]1C=C[C@H](NC(=O)c2cccnc2)[C@H](CO)O1)c1ccccc1
-3	-1.4	i	1	-0.6	O=C(C[C@@H]1CC[C@@H](NS(=O)(=O)c2ccc(F)cc2)[C@H](CO)O1)NC1CCC1
5	-12	i	3	-0.9	CN1C(=O)c2cc(NC(=O)C3CC3)ccc2OC[C@H]2O[C@@H](CC(=O)NCCc3ccncc3)CC[C@H]21
12	2.9	i	0	-1.4	CCC/C=C/c1ccc(CN2C(CC(C)C)C(=O)N(Cc3cn(CCC4OCCCO4)nn3)CCS2(=O)=O)cc1 (configuration not stated)
0	-3.9	i	1	-0.6	CO[C@@H]1CN(C)C(=O)c2cc(NS(=O)(=O)CC(F)(F)F)ccc2OC[C@H](C)NC[C@H]1C

Taken from above:
For Ecoli rRNA inh RFP, CCCC#Cc1cnc2c(c1)C(=O)N([C@H](C)CO)C[C@@H](C)[C@@H](CN(C)C(=O)c1ccc(F)cc1)O2 has the entry -1.3
For Ecoli rRNA inh OD600, COc1ccc(OC)c(NC(=O)C2(C)CCN2C(=O)Cc2ccccc2)c1 (configuration not stated) has the entry 16
For Ecoli rRNA inh OD600, O=C(C[C@@H]1CC[C@@H](NS(=O)(=O)c2ccc(F)cc2)[C@H](CO)O1)NC1CCC1 has the entry -3

Entries listed so far shown as hits in FGF22 binding.
Ecoli rRNA inh OD600	MLL AF4-AF9 inh	FGF22 binding	Ecoli rRNA inh	Ecoli rRNA inh RFP	compound
10	-1.9	+	-1	0.2	C[C@H]1CCCCO[C@H](CN(C)Cc2ccncc2)[C@@H](C)CN([C@@H](C)CO)C(=O)c2cc(NC(=O)c3ccncc3)ccc2O1

Carrying on:
Ecoli rRNA inh OD600	MLL AF4-AF9 inh	FGF22 binding	Ecoli rRNA inh	Ecoli rRNA inh RFP	compound
-6	1.6	i	-4	2.9	COc1ccc(NC(=O)N(C)C[C@@H]2OCCCC[C@H](C)Oc3ccc(NC(=O)Cc4ccccc4)cc3C(=O)N([C@H](C)CO)C[C@H]2C)cc1
4	0.0	i	4	0.5	Cc1ccc(S(=O)(=O)Nc2ccc3c(c2)CC(=O)N([C@@H](C)CO)C[C@H](C)[C@@H](CN(C)C(=O)Nc2cccc4ccccc24)O3)cc1
4	1.5	i	-4	-0.8	Cc1ccccc1NC(=O)COC(=O)c1n[nH]c(=O)c2ccccc12
0	-6.1	i	3	-4.3	CCN(CC)c1ncnc2c1ncn2[C@H]1CN(Cc2ccc(F)cc2)C[C@@H](CO)O1
-6	-3.8	i	3	-2.3	CC(C)[C@@H](C)NC(=O)N(C)C[C@H]1OCc2ccccc2-c2ccccc2C(=O)N([C@H](C)CO)C[C@@H]1C
2	-2.9	i	0	-2.1	CCCC(=O)Nc1ccc2c(c1)C(=O)N(C)[C@H]1CC[C@@H](CC(=O)O)O[C@H]1CO2
-3	8.5	i	1	-0.5	O=C(Nc1ccc2c(c1)OCCO2)C(c1ccccc1)n1c(=O)c(-c2ccco2)nc2ccccc21 (configuration not stated)
-10	-0.9	i	-1	-0.9	CCCN1C[C@H](C)[C@H](OC)CN(C)C(=O)c2cc(NC(=O)Nc3c(C)noc3C)ccc2OC[C@@H]1C
8	-1.8	i	2	-3.2	C[C@@H]1CN([C@@H](C)CO)C(=O)c2cc(NC(=O)Nc3ccc4c(c3)OCO4)ccc2O[C@@H](C)CCCCO[C@@H]1CN(C)S(=O)(=O)c1ccc(Cl)cc1
-8	43*	i	-6	-0.9	C[C@H](CO)N1C[C@H](C)[C@@H](CN(C)Cc2ccc(Cl)c(Cl)c2)OCCCC[C@H](C)Oc2ccc(N(C)C)cc2C1=O
-7	0.3	i	0	-4.3	CCOC(=O)C1=CCC(c2cccc(C)c2)N(S(=O)(=O)c2ccc(C)cc2)C1 (configuration not stated)
15	-3.7	i	5	-2.3	C[C@H]1CN([C@@H](C)CO)C(=O)c2cc(NC(=O)Nc3ccc(F)cc3)ccc2O[C@@H]1CN(C)C(=O)Nc1ccccc1
0	13	i	1	2.5	CCN(C[C@@H]1N[C@@H](CO)[C@H]1c1ccc(-c2cccc(F)c2)cc1)C(=O)CN(C)C
-6	-1.1	i	-1	-5.8	O=C(C[C@@H]1CC[C@H](NS(=O)(=O)c2ccc(F)cc2)[C@@H](CO)O1)N1CCc2ccccc2C1
1	-4.2	i	-7	2.6	CN1c2ccc(C#Cc3cccnc3)cc2[C@H]2[C@H](CCN2S(=O)(=O)c2ccccc2)[C@@H]1CO
-6	-1.5	i	1	-0.1	COCC#Cc1ccc([C@H]2[C@H](CO)N3C(=O)CN(C(=O)C4CCCCC4)C[C@@H]23)cc1
-4	-0.6	i	-4	-6.9	O=C(C[C@H]1C[C@H]2c3cc(NC(=O)Nc4ccccc4F)ccc3O[C@H]2[C@H](CO)O1)NCCc1ccccc1
-11	-3.2	i	2	0.4	COC(=O)C[C@H]1CC[C@H]2[C@H](COc3ccc(NC(=O)C4CCOCC4)cc3C(=O)N2C)O1
2	-1.7	i	1	-1.4	CC(C)CC#Cc1cnc2c(c1)C(=O)N([C@H](C)CO)C[C@@H](C)[C@H](CN(C)C(=O)C1CCOCC1)O2
7	-0.3	i	2	-0.5	C[C@H]1CN([C@@H](C)CO)C(=O)c2cc(NC(=O)Cn3cnnn3)ccc2O[C@@H]1CN(C)C
0	3.0	i	-6	2.0	COc1ccc(NC(=O)Nc2ccc3c(c2)C(=O)N([C@@H](C)CO)C[C@@H](C)[C@H](CN(C)S(=O)(=O)c2ccccc2)O3)cc1
3	-0.6	i	1	-0.6	COc1ccc(S(=O)(=O)N(C)C[C@H]2OCCCC[C@@H](C)Oc3ccc(NS(=O)(=O)c4ccc(F)cc4)cc3C(=O)N([C@H](C)CO)C[C@@H]2C)cc1
-35	-1.7	i	-28	0.0	CN1CCN(C(=O)C[C@H]2CC[C@H]3[C@@H](COC[C@@H](O)CN3C(=O)Nc3cc(Cl)cc(Cl)c3)O2)CC1
-2	-3.7	i	1	-3.1	C[C@H](CO)N1C[C@H](C)[C@H](CN(C)Cc2cncnc2)Oc2ncc(-c3ccc(C#N)cc3)cc2C1=O
-4	5.1	i	1	1.8	COc1ccc(NC(=O)Nc2ccc3c(c2)CC(=O)N([C@@H](C)CO)C[C@H](C)[C@H](CN(C)S(=O)(=O)c2ccc(OC)cc2)O3)cc1
17	-2.3	i	9	-2.3	CC1Cc2c([nH]c(=O)n(-c3ccccc3)c2=O)O1 (configuration not stated)
-2	-0.1	i	-4	2.5	C[C@H]1CN([C@@H](C)CO)S(=O)(=O)c2ccc(C#Cc3ccccc3)cc2O[C@H]1CN(C)S(=O)(=O)c1cn(C)cn1
-3	-1.0	i	0	0.4	C[C@@H](NC(=O)[C@H]1[C@H](CO)[C@H]2Cn3c(ccc(-c4ccccc4)c3=O)[C@H]2N1C)c1ccccc1
-12	1.7	i	-13	-2.2	O=S1(=O)CCOC[C@H](Cc2ccccc2)N1Cc1ccccc1Br
-11	-0.5	i	-2	8.2	COCC#Cc1ccc2c(c1)O[C@H](CN(C)S(=O)(=O)c1cccc(OC)c1)[C@H](C)CN([C@@H](C)CO)S2(=O)=O
-8	-4.1	i	-9	5.3	CC(OC(=O)CC1Sc2ccccc2NC1=O)C(=O)N(C)Cc1ccccc1 (configuration not stated)
1	-0.1	i	2	-2.5	CC(C)NC(=O)Nc1ccc2c(c1)CC(=O)N([C@@H](C)CO)C[C@@H](C)[C@H](CN(C)Cc1ccc(C(=O)Nc3ccccc3N)cc1)O2
-3	-5.5	i	-3	0.9	O=C(C[C@@H]1C=C[C@@H](NC(=O)Nc2ccccc2)[C@H](CO)O1)NCc1ccccn1
2	0.3	i	1	-2.5	COc1ccc(C2CC(=O)C=C3c4ccc(OC)cc4CCC32)cc1 (configuration not stated)
-8	-0.3	i	-3	3.3	COc1ccc(S(=O)(=O)Nc2ccc3c(c2)C(=O)N([C@H](C)CO)C[C@H](C)[C@@H](CN(C)C(=O)C2CCCCC2)OCCCC[C@H](C)O3)cc1
6	-4.5	i	14	-1.4	COC(=O)[C@@]1(Cc2ccccc2)[C@H]2C(=O)N(C)C(=O)[C@H]2[C@H]2CN(C)C(=NCc3ccccc3)N21
-3	-0.3	i	-3	4.2	CCC(=O)N[C@H]1CC[C@H](CCNS(=O)(=O)c2ccc(Cl)cc2)O[C@H]1CO
-4	-2.1	i	2	2.0	Cc1ccc(S(=O)(=O)Nc2ccc3c(c2)C(=O)N([C@H](C)CO)C[C@H](C)[C@@H](CN(C)C(=O)Nc2ccccc2)OCCCC[C@@H](C)O3)cc1
-69	0.9	i	-47	-0.7	O=C(Cc1ccccc1)N1CC[C@@H]2[C@H]1c1cc(-c3ccccc3)ccc1N[C@@H]2CO
1	-1.3	i	0	-0.9	C[C@@H](NC(=O)[C@@H]1[C@@H](CO)[C@@H]2Cn3c(cccc3=O)[C@H]1N2Cc1ccccc1)c1ccccc1
-14	-1.6	i	1	-2.1	C[C@H](CO)N1C[C@H](C)[C@@H](CN(C)Cc2ccccc2)Oc2c(NC(=O)Nc3ccc(F)cc3)cccc2C1=O
15	5.6	i	-3	0.3	COc1ccccc1CC1CC(=O)N(c2ccc([N+](=O)[O-])cc2)C1=O (configuration not stated)
0	-2.6	i	-4	-0.1	Cc1ccccc1S(=O)(=O)N[C@@H]1CC[C@H](CCNS(=O)(=O)c2cccc(F)c2)O[C@H]1CO
14	-0.6	i	7	0.0	COc1ccc(CN(C)C[C@@H]2Oc3ccc(NC(=O)c4ccncc4)cc3C(=O)N([C@@H](C)CO)C[C@H]2C)cc1
-26	-0.8	i	-6	1.5	O=S(=O)(N[C@@H]1CC[C@@H](CCn2cc(-c3cccc(F)c3)nn2)O[C@H]1CO)c1ccc(F)cc1

5 compounds out of the list, ordered by heavy-atom count, falling.
Ecoli rRNA inh OD600	MLL AF4-AF9 inh	FGF22 binding	Ecoli rRNA inh	Ecoli rRNA inh RFP	compound
14	-0.6	i	7	0.0	COc1ccc(CN(C)C[C@@H]2Oc3ccc(NC(=O)c4ccncc4)cc3C(=O)N([C@@H](C)CO)C[C@H]2C)cc1
6	-4.5	i	14	-1.4	COC(=O)[C@@]1(Cc2ccccc2)[C@H]2C(=O)N(C)C(=O)[C@H]2[C@H]2CN(C)C(=NCc3ccccc3)N21
0	-2.6	i	-4	-0.1	Cc1ccccc1S(=O)(=O)N[C@@H]1CC[C@H](CCNS(=O)(=O)c2cccc(F)c2)O[C@H]1CO
-3	-5.5	i	-3	0.9	O=C(C[C@@H]1C=C[C@@H](NC(=O)Nc2ccccc2)[C@H](CO)O1)NCc1ccccn1
-8	-4.1	i	-9	5.3	CC(OC(=O)CC1Sc2ccccc2NC1=O)C(=O)N(C)Cc1ccccc1 (configuration not stated)

(further entries)
Ecoli rRNA inh OD600	MLL AF4-AF9 inh	FGF22 binding	Ecoli rRNA inh	Ecoli rRNA inh RFP	compound
5	-14	i	2	0.5	CCC(=O)N1C[C@H](O)COC[C@@H]2O[C@H](CC(=O)NCc3cc(F)cc(F)c3)CC[C@H]21
3	-2.2	i	1	-1.5	COc1cccc(-c2cnc3c(c2)C(=O)N([C@@H](C)CO)C[C@H](C)[C@@H](CN(C)C(C)=O)O3)c1
1	3.3	i	-1	14	COC(=O)[C@@H]1[C@@H](CO)[C@@H]2Cn3c(ccc(-c4cccc(F)c4)c3=O)[C@@H]2N1CC1CCCC1
0	-0.4	i	0	-1.5	CCCNC(=O)N1[C@@H]2Cn3c(ccc(-c4cccc(OC)c4)c3=O)[C@H]1[C@@H](C(=O)NC1CCC1)[C@@H]2CO
